Bioassay records from PubChem BioAssay.
TRPML1 agonist – qHTS for Agonists of the Human Mucolipin Transient Receptor Potential 1 (TRPML1) | Mucolipin-1 (Homo sapiens), Q9GZU1 | TRPML1-expressing cells, Ca2+ dye fluorescence, FDSS; host cell line not named in the record; reference of the full effect not given here | AID 624414, 2012 | activation, % (test concentration not listed) | 0.12% of 410,000 active; in the data active = activation above about 50%; inconclusive = about 30% to 50%; inactive = below about 30%; further: 0% is about no effect; the text of the record puts the active cut at 80%
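Tetracycline-induced TRPML1-DL cells are seeded and incubated overnight before loading with a no-wash Ca2+ dye and quencher. Agonist activity is taken from the 110 s fluorescence read following compound pin-transfer on an FDSS, before EC80 54-4 challenge.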
TRPML1 inh – qHTS for Inhibitors of the Human Mucolipin Transient Receptor Potential 1 (TRPML1); activity change, negative = inhibition, % (test concentration not listed); 0.02% of 390,000 active; Mucolipin-1 (Homo sapiens), Q9GZU1; AID 624415, 2012; TRPML1-inducible cells, Ca2+ dye fluorescence, FDSS; stronger effect = lower value; inhibition of EC80 agonist-evoked calcium signal; in the data active means activity change below about -50%; inconclusive means about -30% to -50%; inactive means above about -30%;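 further: stimulus is agonist 54-4 at its EC80 concentration; on the % scale 0 is the no-effect control and ±100 the full control effect; compound concentration not given in the record; the text of the record puts the active cut at -80%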
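Calcium fluorescence in TRPML1-DL cells induced overnight with Tet: a 110 s read after compound pin addition, then a 110 s antagonist read after challenge with 54-4 at 4 uM final (EC80).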
Six1-Eya2 inh – qHTS Assay for Inhibitors of the Six1/Eya2 Interaction. AlphaScreen GST-Six1/His-Eya2 binding, biochemical; stronger effect = lower value; control for the full effect not named in the record. AID 651725, 2012. 0.56% of 360,000 active. activity change, % (concentration not given with the values); in the data active = activity change below about -65%; inconclusive = about -30% to -65%; inactive = above about -30%; further: on the % scale 0 is the no-effect control and ±100 the full control effect
Target sequence (O00167 whole entry, looked up): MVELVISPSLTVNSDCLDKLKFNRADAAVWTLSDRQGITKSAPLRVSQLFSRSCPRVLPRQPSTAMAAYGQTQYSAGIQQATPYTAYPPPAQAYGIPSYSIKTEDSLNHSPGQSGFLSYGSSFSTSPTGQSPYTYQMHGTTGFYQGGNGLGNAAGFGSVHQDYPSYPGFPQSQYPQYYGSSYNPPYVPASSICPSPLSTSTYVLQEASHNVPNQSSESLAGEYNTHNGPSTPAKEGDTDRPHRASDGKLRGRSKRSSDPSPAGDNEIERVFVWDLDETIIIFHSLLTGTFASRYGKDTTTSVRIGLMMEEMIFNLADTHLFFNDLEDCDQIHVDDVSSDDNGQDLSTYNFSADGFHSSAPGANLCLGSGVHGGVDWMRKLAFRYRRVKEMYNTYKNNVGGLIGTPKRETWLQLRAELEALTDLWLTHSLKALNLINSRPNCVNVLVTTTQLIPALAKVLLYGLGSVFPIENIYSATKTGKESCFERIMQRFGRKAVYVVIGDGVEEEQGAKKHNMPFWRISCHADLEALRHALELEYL
Target sequence (Q15475 whole entry, looked up): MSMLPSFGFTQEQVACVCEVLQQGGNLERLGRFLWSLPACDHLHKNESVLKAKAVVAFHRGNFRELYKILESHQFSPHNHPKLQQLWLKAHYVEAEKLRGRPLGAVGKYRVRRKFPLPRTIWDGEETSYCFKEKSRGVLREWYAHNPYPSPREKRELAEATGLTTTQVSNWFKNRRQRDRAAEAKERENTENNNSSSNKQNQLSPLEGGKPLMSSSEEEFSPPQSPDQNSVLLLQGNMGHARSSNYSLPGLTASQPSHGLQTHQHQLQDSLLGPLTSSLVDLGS
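Compounds are tested against tagged Six1 and Eya2 proteins bridged by glutathione donor and nickel acceptor beads; after a one-hour incubation at 37 °C without light, AlphaScreen emission is recorded.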
D2 potentiator – Beta-Arrestin HTS for Positive Allosteric Modulators of the Human D2 Dopamine Receptor: Potentiators. D(2) dopamine receptor (Homo sapiens), P14416. DiscoveRx D2 beta-arrestin cells, luminescence, 90 min; 100% = 57 uM dopamine signal. potentiation, % (test concentration not listed). 0.23% of 360,000 active; active = potentiation of 50% or more; inconclusive = 30% to 50%; inactive = 30% or less;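 further: compound concentration not given in the record; tested on top of an EC20 dose of dopamine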
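PathHunter beta-arrestin assay in DiscoveRx D2 cells. Compounds were added with an EC20 of dopamine (50 nM final) for 90 min at 37 deg C. Luminescence was read 1 h after detection reagent, with 57 uM dopamine as the EC100 control.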
D2 agonist – Beta-Arrestin HTS for Positive Allosteric Modulators of the Human D2 Dopamine Receptor: Agonists. D(2) dopamine receptor (Homo sapiens), P14416. DiscoveRx PathHunter D2 beta-arrestin, luminescence, 90 min; 100% = 57 uM dopamine signal. activation, % (no concentration beside the values). 0.084% of 360,000 active. AID 624465, 2012; in the data active = activation above about 40%; inconclusive = about 15% to 40%; inactive = below about 15%; further: compound concentration not given in the record; the text of the record calls up to 30% inactive
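DiscoveRx PathHunter D2 beta-arrestin cells (2,100/well) attached overnight, then compound-stimulated 90 min at 37 C in HBSS/10 mM HEPES/0.1% Tween-20 buffer; beta-galactosidase complementation read by luminescence after 1 h at ambient temperature. Dopamine 57 uM final (EC100) as control.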
PINK1 modulator – A Quantitative High throughput Screen to Identify Chemical Modulators of PINK1 Expression; Potency, µM (titrated, usually from 76.6 µM), without a hit: at the highest dose activation (PINK1 increase), usual class: activators; 0.2% of 410,000 active; PINK1 immunofluorescence, high-content cytometry, 24 h; active = well fitted activation curve with a large enough effect; inconclusive = small, poorly fitted or top-dose-only effect; inactive = flat fitted curve, though single readings scatter; cell line not stated here;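 further: potency means the concentration at half of the fitted maximal effect; % of control where 0% means no effect; nearly all actives have a fitted effect of over 65% in size; a mitochondrial uncoupler was the plate control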
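Compound titrations (5 concentrations, 24 h) on a stable cell line; DMSO and CCCP controls. Endpoint: fixed-cell PINK1 immunofluorescence with mitochondrial, cell and nuclear markers, scanned by microplate cytometer.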
Starred values were filed as active, the others as inactive; ? = inconclusive; · = not tested or not shown; [ ] = remark or other dose. Compounds as they come. Share with any hit: about 1%.

SMILES | TRPML1 agonist | TRPML1 inh | Six1-Eya2 inh | D2 potentiator | D2 agonist | PINK1 modulator
Cc1cccc(NC(NC(=O)Cc2ccccc2)C(Cl)(Cl)Cl)c1 (configuration not stated) | 3.0 | 13 | -4 | -22 | -2.8 | 5.1%
Cc1ccc(C)c(SCC(=O)Nc2cccc(S(=O)(=O)NC3=NCCCCC3)c2)c1 | 0.7 | 2 | 3 | -6 | 0.6 | -1.2%
COc1ccc(/C=C(\NC(=O)c2ccc(Cl)cc2)C(=O)NCCCn2ccnc2)cc1OC | -0.3 | 8 | -3 | -10 | -3.8 | 2.2%
COc1cc(CCCN[C@H](CN)Cc2ccccc2)cc(OC)c1OC | -0.5 | -10 | -20 | -23 | -3.9 | -0.8%
O=c1[nH]c(N2CCOCC2)nc2ncn(Cc3ccccc3)c12 | -0.2 | 5 | 4 | 4 | -2.7 | 0.3%[38.3 µM]
Cc1cc(Cl)ccc1NS(=O)(=O)c1c(C)[nH]c(=O)[nH]c1=O | 0.3 | 2 | 9 | 2 | 2.7 | -1.3%
OCC1(Cc2ccc(Cl)cc2)CCN(CC2CC=CCC2)CC1 (configuration not stated) | -0.6 | 1 | -5 | -17 | 1.3 | 5.1%
FC(F)(F)c1ccc2c(c1)[nH]c(=S)n2C1CC1 | 1.7 | 68 | 0 | -25 | -3.5 | 0.9%
Cc1cc(C)n(-c2nc3ccccc3nc2Nc2ccc3c(c2)OCO3)n1 | 0.1 | 17 | 24 | -1 | -1.5 | 0.5%
Cc1ccc(-c2nc3c(Cl)cc(C(F)(F)F)cn3c2Cc2cccc(F)c2)cc1 | -0.2 | · | 3 | -2 | -2.6 | 6.6%
COCCCNC(=O)[C@H]1N2C(=O)c3ccccc3C2SC1(C)C (some centres not stated) | 1.2 | 33 | -5 | -1 | -1.9 | 1.9%
Cn1ncc(Br)c1C(=O)Nc1ccc(F)cc1F | -0.8 | 4 | 4 | -14 | -3.1 | -4.0%
C/C(=N\NC(=O)c1nnn(-c2nonc2N)c1CSc1ccccc1)c1cccnc1 | 1.5 | 11 | 1 | -4 | 2.2 | -0.5%
CCn1c(C)c(C(C)=O)c(SC)nc1=S | -0.9 | 8 | -8 | -5 | 0.0 | 0.8%
CC(C)NC(=O)c1ccc2c(=O)n(CC3CCCO3)c(=S)[nH]c2c1 (configuration not stated) | -0.6 | 2 | -6 | -6 | -3.7 | 2.8%
COc1ccccc1NC(=O)Cn1c(=O)n(-c2cccc(Cl)c2)c(=O)c2c1c1cc(C)ccc1n2C | 0.3 | -7 | · | · | · | 0.9%
Cc1ccc(S(=O)(=O)c2ccc(NN)cc2)cc1 | -0.4 | -12 | 9 | -1 | -3.8 | 1.1%
O=C(C1CCCC1)N1CCN(S(=O)(=O)c2ccc(F)c(F)c2F)CC1 | 0.5 | 21 | 10 | -2 | -4.3 | -1.1%
CCN1CCN(C(=O)c2ccc(Cn3c(=O)[nH]c4cc(OC)c(OC)cc4c3=O)cc2)CC1 | -0.5 | 17 | -30 | -19 | -3.8 | 0.8%
COc1ccc(/C(C)=N/NC(=O)CCC(=O)Nc2ccc(Cl)cc2Cl)c(OC)c1 | -0.1 | 29 | -8 | -13 | -1.8 | -1.2%
Cc1ccc(Sc2c(CO)c(-c3ccccc3)nn2C)cc1 | 3.3 | 6 | 2 | 11 | -3.7 | 1.0%
CCN1CCCC1CNC(=O)c1[nH]c2ccc(OC)cc2c1C (configuration not stated) | · | · | -8 | -22 | -4.6 | 0.9%
COc1ccc(Cl)cc1CC=NNC(=O)c1cccc(C)c1O | 1.4 | 14 | -2 | -17 | -3.5 | 0.2%
Cc1ccc(S(=O)(=O)c2c(N)n(NC(=O)c3ccco3)c3nc4ccccc4nc23)cc1 | 0.6 | 4 | -5 | 3 | -0.2 | 6.9%[38.3 µM]
CC(=O)c1c(COC(=O)c2ccncc2)nc2ccccc2[n+]1[O-] | 1.3 | -4 | -9 | 1 | 4.9 | 1.5%
CCCCCC(=O)Nc1cc(N(C)C)nc2ccccc12 | 1.7 | 8 | -1 | -21 | -9.1 | 1.0%
Cc1cc(OCC(=O)N2CCN(c3ccc(F)cc3)CC2)c2c(C)cc(=O)oc2c1 | 0.8 | 4 | 4 | -3 | 2.5 | 2.3%
O=[N+]([O-])c1ccc(Oc2ccc(S(=O)(=O)N3CCCCC3)cc2)cc1 | -0.3 | 19 | -10 | 10 | -2.0 | -0.1%
COc1ccccc1NC(=O)C1CCCN(S(=O)(=O)c2c(C)noc2C)C1 (configuration not stated) | -0.5 | -19 | 1 | -3 | -1.1 | -1.0%
O=S1(=O)N[C@@H](Cc2ccccc2)COc2cc(Br)ccc21 | -0.7 | -10 | -2 | -8 | -3.0 | 5.8%
COc1ccc(-c2cc(C(=O)Nc3ccccc3O)c3ccccc3n2)cc1 | 1.8 | 31 | -12 | 6 | 7.0 | 5.7%
Cc1cc(C(=O)NNC(=O)C(CCC(N)=O)NS(=O)(=O)c2ccc(Cl)cc2)c(C)o1 (configuration not stated) | 0.4 | -10 | 0 | -2 | 3.2 | -1.5%
Cc1ccc(NC(=O)C(OC(=O)c2ccc(C=O)cc2)c2ccccc2)cc1Cl (configuration not stated) | 0.8 | -9 | -7 | -7 | -2.3 | 0.4%
COc1cccc(OC(=O)c2cc3ccccc3oc2=O)c1 | 0.3 | 1 | -18 | 4 | -2.2 | 0.1%
Cc1cc(OC(F)F)ccc1NC(=S)NCCc1ccccc1 | -0.5 | 11 | -10 | -21 | -4.5 | 0.0%
CN1CCN(C(CNC(=O)c2ccccc2)c2ccc3c(c2)OCO3)CC1 (configuration not stated) | -0.6 | 15 | · | · | · | -1.3%
CN(CC(=O)Nc1ccc(F)cc1)C(=O)COc1ccc(C(=O)c2ccccc2)cc1 | -0.9 | -8 | -8 | -10 | 2.0 | 4.0%
CCOC(=O)c1cc(Sc2ccccc2N)cc(C(=O)OCC)n1 | 1.3 | 6 | 9 | 13 | 3.2 | 0.8%
NC(=O)c1ccc(NS(=O)(=O)c2ccc3ccccc3c2)cc1 | -1.1 | 9 | -1 | 1 | -4.1 | 2.5%
COc1nc(Nc2ccc(OC)c(Cl)c2)nc(OC)n1 | 0.3 | -16 | -24 | -9 | -4.5 | -2.7%
COCCCNC(=O)c1cccc(NC(=O)c2ccccc2)c1 | 0.2 | -16 | 3 | -2 | 0.5 | 0.0%
CCOc1ccc2ccccc2c1C(=O)N1CCOCC1 | 0.0 | -6 | -1 | -3 | 2.6 | 20%[38.3 µM]
CSC1=NCCN1C(=O)Cc1ccc(Cl)cc1 | 0.2 | 20 | 0 | -5 | -4.5 | 5.0%
COc1cc(NC(=O)C2=C(C)Nc3nnnn3C2c2ccc(SC)cc2)c(OC)cc1Cl (configuration not stated) | 2.3 | 16 | · | · | · | -0.4%
O=C(O)CC1(CC(=O)NCc2ccncc2)CCCCC1 | -0.6 | 11 | 2 | -2 | -1.0 | -3.0%
COc1ccccc1NC(=O)COc1ccc(C(=O)NC2CCCc3ccccc32)cc1OC (configuration not stated) | 2.4 | 0 | -2 | 2 | 5.3 | 7.6%
CCn1nc(C(=O)NCc2nnc3ccccn23)c2ccccc2c1=O | -0.5 | 5 | 0 | -21 | -2.3 | 2.6%
CC(=O)Nc1ccccc1-c1nc2ccc(C(=O)N3CCN(c4ccccc4)CC3)cc2[nH]c1=O | -0.6 | 20 | -1 | -3 | 0.6 | 0.3%
COc1ccc(CNn2c(-c3ccccc3F)nc3ccccc3c2=O)cc1OC | -0.4 | -3 | 3 | 3 | 1.7 | 1.0%
COc1ccc(NS(=O)(=O)c2cc(NC(=O)c3ccco3)ccc2N2CCCC2)cc1 | 0.0 | -1 | 9 | -7 | -9.9 | 8.1%
CC(C)CCn1c(SCC(=O)N2CC(=O)Nc3ccccc32)nc2scc(-c3cccs3)c2c1=O | 1.1 | 43 | -9 | 13 | -5.2 | 0.4%
CCOc1ccc(C(=O)C[n+]2ccccc2C)cc1 | -0.2 | 29 | 2 | 0 | -4.4 | -0.7%
O=[N+]([O-])c1ccccc1OCCN1CCOCC1 | -0.8 | 11 | 4 | -30 | -1.0 | 1.0%
Cc1cccc(C(=O)Nc2sc3c(c2C#N)CCCCC3)c1 | 1.5 | -4 | 13 | -3 | -1.5 | 25%
Cc1ccc(C)c(N2C(=O)N(C)c3ccccc3S2(=O)=O)c1 | -1.1 | -8 | · | · | · | 2.8%
Cc1cccc(N2CCN(S(=O)(=O)c3ccc4[nH]c(=O)ccc4c3)CC2)c1C | 0.2 | 0 | -1 | -5 | -3.0 | 0.1%
CSc1ncc2ncn(C3OC(CO)C(O)C3O)c2n1 (configuration not stated) | 0.9 | 21 | 6 | -7 | -3.1 | 2.6%
COc1ccc(NC(=O)CN2CCCCC2)c([N+](=O)[O-])c1 | 0.9 | -2 | -16 | -16 | 0.9 | ·
CC1CC(C)CN(c2oc(-c3ccccc3F)nc2C#N)C1 (configuration not stated) | 0.4 | 67 | -10 | -6 | -1.6 | 1.3%
O=C(NCCn1cc(SCc2ccc(F)cc2)c2ccccc21)c1cccs1 | 1.4 | -2 | · | · | · | ?

Reprinted from the part before: two entries; new compounds follow.
SMILES | TRPML1 agonist | TRPML1 inh | Six1-Eya2 inh | D2 potentiator | D2 agonist | PINK1 modulator
CC1CC(C)CN(c2oc(-c3ccccc3F)nc2C#N)C1 (configuration not stated) | 0.4 | 67 | -10 | -6 | -1.6 | 1.3%
O=C(NCCn1cc(SCc2ccc(F)cc2)c2ccccc21)c1cccs1 | 1.4 | -2 | · | · | · | ?
CCc1cccc(CC)c1N(COC)C(=O)Cn1c(CC)nc2ccccc21 | 0.4 | 3 | · | · | · | 1.1%
Cc1[nH]c(C)c(S(=O)(=O)N2c3ccccc3CC2C)c1C(=O)N1CCCCC1 (configuration not stated) | -0.1 | 20 | -2 | -9 | -2.9 | 1.4%
CC(C)(O)C(=O)NN(C(=O)c1ccccc1)c1cccc(Br)c1 | 0.9 | -2 | 13 | 16 | -1.0 | -2.5%
COc1ccc(Oc2cccc(Cl)c2CNC(=O)CSCC(=O)O)cc1 | 0.4 | -15 | 0 | 4 | -2.1 | -1.2%
CCC(CC)c1nnc(NC(=O)C2CC(=O)N(c3ccc4c(c3)OCCO4)C2)s1 (configuration not stated) | -0.5 | 2 | -10 | 0 | -2.4 | 1.9%

Some of these compounds in order of number of heavy atoms, smallest number first:
SMILES | TRPML1 agonist | TRPML1 inh | Six1-Eya2 inh | D2 potentiator | D2 agonist | PINK1 modulator
CSC1=NCCN1C(=O)Cc1ccc(Cl)cc1 | 0.2 | 20 | 0 | -5 | -4.5 | 5.0%
COc1ccccc1NC(=O)C1CCCN(S(=O)(=O)c2c(C)noc2C)C1 (configuration not stated) | -0.5 | -19 | 1 | -3 | -1.1 | -1.0%
COc1ccc(-c2cc(C(=O)Nc3ccccc3O)c3ccccc3n2)cc1 | 1.8 | 31 | -12 | 6 | 7.0 | 5.7%
